Rce1 inhib = blocks yeast Ras-converting enzyme; Q03530; yeast membranes, quenched prenylated peptide cleavage fluorescence; calls only; 290,000 compounds, 0.27% hits; AID 2563;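 active means fall in fluorescence gain of 50% or more versus controls, with final raw signal at or below 3038400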;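 further: plate controls were neutral control wells for no effect and wells lacking membranes for full effect; tested at 10 µM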
eIF4H FP inh = inhibitors of RNA binding by human eIF4H; Q15056; eIF4H fluorescence polarization binding assay; inhibition, % at 35 µM; 290,000 compounds, 0.94% hits; AID 2012;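 active means 50% or more with normal probe brightness, or confirmed in later tests; about a fifth of its hits are not listed in these tables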;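 further: calls also rest on retests at 20 µM and on dose response follow-up; 0% = protein and probe with vehicle and 100% = probe without protein; strong numbers were not always called active; many hits fall short of the cut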
PABP polyA inh = PABP-poly(A) binding inhibition; PABP-poly(A) RNA binding, fluorescence polarization; inhibition, % at 35 µM; 290,000 compounds, 1% hits;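 active means 50% or more with normal probe brightness, or confirmed in later tests; about a fifth of its hits are not listed in these tables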;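 further: calls also rest on retests at 20 µM and on dose response follow-up; controls were probe without protein and protein plus probe with vehicle; some compounds called inactive have numbers as strong as hits; many hits fall short of the cut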
Target sequence (P11940 whole entry, looked up): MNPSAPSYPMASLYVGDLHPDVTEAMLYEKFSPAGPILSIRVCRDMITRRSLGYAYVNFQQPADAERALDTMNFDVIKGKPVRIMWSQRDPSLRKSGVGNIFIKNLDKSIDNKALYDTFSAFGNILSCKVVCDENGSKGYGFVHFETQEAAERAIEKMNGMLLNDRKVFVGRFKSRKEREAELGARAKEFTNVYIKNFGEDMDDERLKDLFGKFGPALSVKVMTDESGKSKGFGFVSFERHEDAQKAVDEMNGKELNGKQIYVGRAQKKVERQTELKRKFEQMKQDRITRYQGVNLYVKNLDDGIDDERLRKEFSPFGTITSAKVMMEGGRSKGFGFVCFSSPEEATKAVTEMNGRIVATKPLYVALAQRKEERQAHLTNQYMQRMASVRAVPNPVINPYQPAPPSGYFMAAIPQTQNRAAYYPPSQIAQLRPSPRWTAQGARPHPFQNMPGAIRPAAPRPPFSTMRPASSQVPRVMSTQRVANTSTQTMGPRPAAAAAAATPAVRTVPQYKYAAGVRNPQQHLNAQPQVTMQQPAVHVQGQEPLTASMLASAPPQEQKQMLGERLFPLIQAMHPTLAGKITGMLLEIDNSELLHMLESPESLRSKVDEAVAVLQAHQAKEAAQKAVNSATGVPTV
HIV Env fusion = HIV envelope-mediated fusion inhibition; HeLa-JRFL Env/CEM21 cell fusion, luciferase; inhibition, % at 12.3 µM; 360,000 compounds, 1.1% hits;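 active means mean replicate inhibition score of at least 50 and every replicate individually at or above 50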;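 further: 0% = plate neutral controls and 100% = maraviroc near 300 nM; one replicate is shown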
MT1-MMP act inh = blocks activation of human MT1-MMP; P50281; HT1080 RFP-PRO-GFP cells, GFP/RFP ratio fluorescence, overnight; percent of plate control window, DMSO zero; GFP/RFP ratio change, % at 20 µM; 360,000 compounds, 0.061% hits; AID 651647;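 active means GFP/RFP ratio change of at least 30% with cell ATP level not reduced by more than half and red fluorescence within 50% of control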; further: strong numbers were not always called active
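Assay system: HT1080 RFP-PRO-GFP cells. Benchmarks: DMSO vehicle wells and RFP-L50D-GFP reporter cell wells. Times: overnight cell settling, then overnight compound exposure, 37 °C, 5% CO2. Compound: 20 µM single dose, 1% DMSO. Read-out basis: GFP/RFP fluorescence ratio.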
UUG fidelity = modulators of start codon recognition fidelity in yeast. activity score, % at 18.7 µM. AID 602363. S. cerevisiae UUG-firefly luciferase reporter, luminescence/redox ratio. 350,000 compounds, 0.13% hits;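 active means replicate mean at a twofold rise or more, about +100% in these data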;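 further: firefly luciferase made from a UUG start codon reports start codon fidelity; reporter light over untreated wells divided by growth signal over untreated wells; some hits fall short of that in this replicate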
CSC inhib = cancer stem cell inhibition; cancer stem cell-like cells viability, luminescence; inhibition, % at 7.5 µM; 300,000 compounds, 1.1% hits;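 active means mean at 75% or more and at least half the replicates too; tested in HMLE shEcad cells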;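 further: 0% = median of negative and 100% = median of positive control wells; the first replicate is given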
eIF4H FP inh retest = second read-out of eIF4H FP inh, no call of its own (marks repeat the call); inhibition, %; compound at 20 µM; confirmation average;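 mean of two retest wells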
PABP polyA inh retest = second read-out of PABP polyA inh, no call of its own (marks repeat the call); inhibition, %; compound at 20 µM; confirmation repeats;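 mean of two retest wells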
MT1-MMP act inh RFP = also measured in MT1-MMP act inh; calls as there; RFP signal change, %; measured here: RFP expression control read;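 0 = vehicle wells; hits needed this value within 50% of zero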
Starred values were filed as active, the others as inactive; i = inactive; / = not tested or not shown; & = joins results of further samples; [ ] = dose if it differs, or a comment.

SMILES | Rce1 inhib | eIF4H FP inh | PABP polyA inh | HIV Env fusion | MT1-MMP act inh | MT1-MMP act inh RFP | UUG fidelity | CSC inhib | others
O=C(CN1CCN(S(=O)(=O)c2cccc(Cl)c2)CC1)NCC1(N2CCOCC2)CCCCC1 | / | / | / | 4 | -5 | 0 | -1 | /
CC(OC(=O)c1cnc2ccccc2n1)c1ccccc1Cl (stereo not given) | i | -3 | 0 | 0 | -1 | 6 | -10 | -5
Cc1ccc2cc(C#N)c(N3CCCN(C(=O)C4CCCO4)CC3)nc2c1 (stereo not given) | i | 11 | 18 | -90 | -13 | 8 | 1 | -10
COc1ccc(-n2cnc3cc(NCc4ccccn4)ccc32)cc1 | i | -6 | 2 | / | -1 | 3 | -21 | 5
CS(=O)(=O)N1CCN(C(=O)c2cc(-c3cccnc3)nc3ccc(Cl)cc23)CC1 | i | 0 | 11 | 1 | 4 | 6 | / | -4
O=[N+]([O-])c1cc(CN2CCCC2)ccc1Sc1ccc(Cl)cc1 | i | 100 | 45 | 1 | -2 | -5 | / | 36 | eIF4H FP inh retest=-3;PABP polyA inh retest=9
Cn1c(=O)n(C)c(=O)n(CC(=O)N2CCCCC2)c1=O | i | 4 | 0 | -6 | 4 | 8 | -7 | -10
O=C1CN(C(=O)N[C@@H](Cc2ccccc2)C(=O)N[C@@H](Cc2ccccc2)C(=O)O)c2ccccc2N1 | / | -9 | 6 | / | 2 | 5 | 3 | -8
O=C1NC(=O)C(c2ccccc2[N+](=O)[O-])=C1Nc1ccc(O)c(Cl)c1 | i | 67* | 40* | 1 | -2 | -4 | -17 | -4 | eIF4H FP inh retest=100*;PABP polyA inh retest=66*
COCCn1c(SCC(=O)N2CCCC2)nnc1C(C)C | i | -8 | -2 | / | 2 | 0 | -3 | 0
NC(=O)N/N=C/c1coc2ccc3ccccc3c2c1=O | i | -8 | 0 | -26 | -4 | -2 | / | -12
CS(=O)(=O)c1cccc(C(=O)NC(c2ccccc2)c2ccccc2)c1 | i | 8 | -1 | / | 1 | 2 | -8 | -5
COc1ccccc1C(=O)N/C(=C/c1cccc([N+](=O)[O-])c1)C(=O)Nc1cccc(C(=O)O)c1 | i | -7 | 30 | 8 | -5 | -2 | / | 13
CCOc1ccccc1N1CCN(S(=O)(=O)CC)CC1 | i | -5 | 14 | / | -1 | 2 | -5 | -19
O=C(CSc1nncn1-c1ccccc1)NC1CCCC1 | i | 3 | -11 | -10 | -2 | 1 | -17 | -10
CC(=O)c1cc(F)c(N2CCCCCC2)cc1C | i | -4 | 2 | -69 | 3 | 6 | -3 | 9
Cc1nc(SCC(=O)Nc2c(C)n(C)n(-c3ccccc3)c2=O)[nH]c(=O)c1C | i | / | / | -1 | 4 | 3 | -1 | -7
CCc1nc2sc3c(c2c(=S)[nH]1)CC(C)(C)OC3 | i | -7 | 0 | 4 | -7 | -6 | -16 | /
CC1CCCCN1CCNC(=O)C1CCCN(S(=O)(=O)c2cccc3nsnc23)C1 (stereo not given) | i | 3 | 2 | -5 | 2 | 8 | 5 | 5
Cc1c(NC(=O)CSc2nnc3sc4ccccc4n23)c(=O)n(-c2ccccc2)n1C | i | 4 | 4 | / | 6 | 3 | -19 | -19
Cc1nnsc1C(=O)NC(C)c1ccccc1 (stereo not given) | i | -3 | -22 | -8 | -1 | 0 | -4 | -1
NC(=O)[C@@H]1CCCN1Cc1nc(-c2cccs2)no1 | i | -6 | -1 | 8 | 2 | 7 | / | -7
CN(CCOc1ccccc1)c1ccc(S(=O)(=O)N2CCCCC2)cn1 | i | -3 | 0 | / | 3 | -1 | -12 | 15
CC(=O)N(CCc1ccccc1C)Cc1cc2ccc(C)cc2[nH]c1=O | i | -10 | 4 | -3 | / | / | -9 | -17
CCCn1c(O)c(N=NC(=O)CNC(=O)c2cccnc2)c2ccccc21 | i | / | / | 8 | 2 | 1 | -1 | -10
CC(=O)Nc1ccc(S(=O)(=O)N2CCN(C(=O)C3COc4ccccc4O3)CC2)cc1 (stereo not given) | i | -12 | -6 | -2 | 1 | -5 | -1 | -5
COCCNC(=S)N1CCCC(CO)C1 (stereo not given) | i | -5 | -12 | 17 | 1 | -1 | -13 | -7
C[C@@H](C(=O)Nc1nc(-c2ccccn2)cs1)N1C(=O)C2CCCCC2C1=O (stereo not given in full) | i | 53 | 33 | / | 1 | -3 | -12 | 5 | eIF4H FP inh retest=0;PABP polyA inh retest=6
COc1ccc(NC(=O)c2cc(-c3cc(F)ccc3OC)n[nH]2)c(OC)c1 | / | / | / | 0 | -5 | -1 | -8 | /
Cc1nn(-c2ccccc2)c(N)c1C(c1ccccc1)c1c(C)nn(-c2ccccc2)c1N | i | -5 | -4 | / | 2 | -1 | / | -8
O=S(=O)(c1c(F)cccc1F)N1CCCC2CCCCC21 (stereo not given) | / | / | / | 9 | -2 | -2 | 0 | 3
CN(C)c1ccc(CN(C(=O)c2cc3ccccc3oc2=O)C2CCS(=O)(=O)C2)cc1 (stereo not given) | i | 4 | 10 | -34 | 1 | 6 | -13 | -8
CCC(=O)NC(=S)Nc1ccc(NC(=O)c2ccccc2[N+](=O)[O-])cc1 | i | 3 | 8 | 6 | -2 | -3 | 1 | -10
CCN(CC)CCn1c(NCc2ccc(OC)cc2)nc2ccccc21 | i | -5 | 15 | 6 | -4 | -3 | -26 | -10
CC(=O)Nc1ccc(S(=O)(=O)N(C)c2ccccc2)cc1 | i | 14 | -6 | -60 | -2 | 2 | 1 | 26
O=C(Nc1ccc2c(c1)OCO2)[C@@H]1CCCN1S(=O)(=O)c1cccc2cccnc12 | / | / | / | -8 | 3 | -1 | -25 | 4
Cn1ccn(CCCCCCn2ccn(C)c2=S)c1=S | / | / | / | 14 | 5 | 3 | -14 | /
CC(C)C1Oc2ccccc2N(CC(=O)NC2CCCCC2)C1=O (stereo not given) | i | -9 | -14 | 12 | 2 | 1 | 1 | /
CC(=O)N(Cc1cccnc1)c1cccc(-c2nc3ccccc3s2)c1 | i | 0 | 0 | 2 | 5 | -5 | -13 | 26
CCn1cc(C(=O)O)c(=O)c2cc(F)c(N3CCN(S(=O)(=O)c4ccc(NC(C)=O)cc4)CC3)cc21 | i | 24 | -3 | 7 | -4 | -1 | / | -29
COc1ccc(C(=O)NC(=S)Nc2ccc(N3CCOCC3)cc2)cc1Cl | i | -14 | 2 | -7 | 1 | -8 | -33 | 16
O=C(O)COc1ccc(Br)cc1CP(=O)(c1ccccc1)c1ccccc1 | i | 1 | 1 | 11 | 3 | 5 | / | -3
CSc1ccc(NC(=O)/C=C/C(=O)O)cc1 | i | -6 | 3 | -1 | 7 | 3 | -9 | -7
CCc1nnc(NC(=O)c2ccc(C)o2)s1 | i | 3 | 2 | -47 | 2 | 3 | 12 | -41
CC1CN(C(=O)COC(=O)c2ccc(NC(=O)CC#N)cc2)CC(C)O1 (stereo not given) | i | 12 | -4 | 7 | 0 | 2 | / | -8
O=C(NCCN1CCOCC1)c1cc(-c2ccc(F)cc2)on1 | i | 6 | 6 | -102 | 4 | 2 | / | 14
Cc1nn(-c2ccccc2)c(N2CCCC2)c1/C=N/NC(=O)c1cc(-c2cccs2)nc2ccccc12 | i | -19 | 3 | 0 | -7 | -7 | / | 9
CC(C)[C@H](NC(=O)c1ccc(Cl)c([N+](=O)[O-])c1)C(=O)NCc1ccc(Cl)cc1Cl | i | -6 | 9 | 13 | -2 | -1 | -8 | 0
CCOC(=O)C1=C(N)OC2=C(C(=O)CC(C)(C)C2)C1C1CCCCC1 (stereo not given) | i | -4 | -2 | / | -7 | -3 | 6 | 15
CN1CCN(S(=O)(=O)c2ccc(NC(=S)NC(=O)c3ccc(Cl)cc3)cc2)CC1 | / | 15 | 7 | / | -1 | -4 | / | /
Cc1ccc(Cl)cc1N1CCN(C(=O)C2(S(=O)(=O)c3ccc(Cl)cc3)CC2)CC1 | / | 2 | 8 | -37 | -42 | -37 | -13 | 4
COc1ccc(C(=O)Nc2ccccc2C(=O)O)cc1NC(=O)C(c1ccccc1)c1ccccc1 | i | -1 | 5 | 1 | 6 | -5 | / | 22
O=C(CNC(=O)N1CC(=O)Nc2ccccc21)Nc1cc(Cl)ccc1Cl | i | -6 | -9 | 10 | 2 | 3 | -21 | -1
c1coc(CNc2nc(-c3cccs3)cs2)c1 | i | 84 | 3 | -17 | -5 | 2 | / | 0 | eIF4H FP inh retest=-23;PABP polyA inh retest=0
Cn1c2ccccc2c2cc(/C=C(\NC(=O)c3ccccc3)C(=O)O)ccc21 | i | 8 | 2 | 9 | 5 | 8 | -17 | -11
O=C(CCn1c(=S)[nH]c2ccccc2c1=O)NCCc1ccccc1 | i | -1 | 8 | 2 | 3 | 0 | / | -31
COCCn1c(C)cc(C(=O)COC(=O)c2ccc([N+](=O)[O-])o2)c1C | i | 2 | -6 | -16 | -6 | 2 | -62 | 0
COc1ccc(CC(CC(=O)O)C(=O)NCc2ccccc2)cc1 (stereo not given) | i | -3 | 0 | 1 | 2 | 6 | -1 | 8
CCOc1ccc(C(C)=O)cc1COC(=O)CNC(=O)c1cccs1 | i | / | / | 0 | 4 | 3 | -38 | -6
COc1ccccc1-c1nnc2sc(C3CCCCC3)nn12 | / | -16 | 2 | 13 | 2 | -4 | / | -11
Next section
SMILES | Rce1 inhib | eIF4H FP inh | PABP polyA inh | HIV Env fusion | MT1-MMP act inh | MT1-MMP act inh RFP | UUG fidelity | CSC inhib | others
CCOc1ccc(NC(=O)C(NC(=O)C2CCC(C)CC2)C(C)C)cc1 (stereo not given) | i | 4 | 7 | 8 | -2 | -2 | -12 | 7
CCOc1ccccc1Nc1nnc(SC(C)C(=O)Nc2nc(-c3ccccc3)cs2)s1 (stereo not given) | i | -8 | 3 | -3 | -2 | 2 | / | 24
O=C(NCc1ccccc1)C1=C[C@H](c2csc3ccccc23)C[C@H](OCc2ccc(CO)cc2)O1 | i | -7 | -8 | -3[16.7 µM] | 3 | -12 | 1&-22 | 14
O=C(O)C1CCC(N2C(=O)C3C4CCC(C4)C3C2=O)CC1 (stereo not given) | i | -4 | 8 | -1 | -3 | 7 | / | 0
CCOC(=O)C1CCN(C(=O)C2(NC(=O)Nc3ccccc3C)CCCCC2)CC1 | i | -1 | 4 | -9 | -3 | 0 | -13 | -10
CCN(CC)S(=O)(=O)c1ccc(N2CCOCC2)c(NC(=O)c2ccc3c(c2)OCCO3)c1 | i | / | / | 11 | -4 | -4 | / | -8
CC(Oc1cccc(Br)c1)C(=O)NNC(=O)CCS(=O)(=O)c1ccccc1 (stereo not given) | / | / | / | 11 | 2 | 8 | 3 | -14
CC(NC(=O)c1ccco1)C(c1cccs1)N1CCN(c2ccccc2)CC1 (stereo not given) | i | 3 | -4 | -39 | -11 | -2 | 4 | -6
CC(=O)c1ccc(N2CCN(C(=O)c3ccc(Cl)c(NC4=NC5CS(=O)(=O)CC5S4)c3)CC2)cc1 (stereo not given) | i | / | / | -3 | -1 | 1 | -6 | -2
Cc1ccccc1CSCCNC(=O)Nc1ccccc1 | i | 4 | 4 | -4 | 4 | 5 | / | 2
CN(CC(=O)NCc1ccccc1)Cc1ccc(Cl)cc1 | i | -11 | -7 | 2 | 2 | 1 | -17 | 6

Three structures already listed, sorted by number of heavy atoms, highest first.
SMILES | Rce1 inhib | eIF4H FP inh | PABP polyA inh | HIV Env fusion | MT1-MMP act inh | MT1-MMP act inh RFP | UUG fidelity | CSC inhib | others
CCN(CC)S(=O)(=O)c1ccc(N2CCOCC2)c(NC(=O)c2ccc3c(c2)OCCO3)c1 | i | / | / | 11 | -4 | -4 | / | -8
CC(NC(=O)c1ccco1)C(c1cccs1)N1CCN(c2ccccc2)CC1 (stereo not given) | i | 3 | -4 | -39 | -11 | -2 | 4 | -6
CCOc1ccc(NC(=O)C(NC(=O)C2CCC(C)CC2)C(C)C)cc1 (stereo not given) | i | 4 | 7 | 8 | -2 | -2 | -12 | 7

Rows were taken by chance. Share with any hit: about 2.9%.
